# E coli growth: E. coli growth inhibition | OD600 absorbance (no concentration beside the values) | AID 1053175 | 0.21% of 330,000 active | Escherichia coli growth, OD600, 23 h; hits give low values;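 active means OD600 absorbance below the run mean of sample wells minus 3.6 SD, in any replicate, cut at about 0.56 in these data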;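 further: stock transfer was 300 nL into about 60 µL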
# Ecoli rRNA inh: selective bacterial rRNA inhibition in E. coli. E. coli WT GFP vs humanized-ribosome RFP mutants, fluorescence, 24 h; hits give low values; DMSO median 0, no signal -100. AID 720706. GFP signal change (wild-type ribosome), % (test concentration not listed). 1.6% of 350,000 active;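 active means significant combined selectivity score with lowered wild-type GFP, culture density cut under 30%, mutant RFP and density less affected; inactive means any of these conditions unmet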; further: one replicate is shown; some compounds called inactive have numbers as strong as hits
# FGF22 binding: shifts melting point of recombinant human FGF22; recombinant FGF22 thermal shift, SYPRO orange fluorescence; percent of sucrose octasulfate shift, DMSO zero; calls only at 9.99 µM; 1.5% of 340,000 active;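 active means melting point raised past a set limit in the mean and every replicate; inconclusive means no clear call; three in four hits are not shown here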
# Target sequence (Q9HCT0 whole entry, looked up): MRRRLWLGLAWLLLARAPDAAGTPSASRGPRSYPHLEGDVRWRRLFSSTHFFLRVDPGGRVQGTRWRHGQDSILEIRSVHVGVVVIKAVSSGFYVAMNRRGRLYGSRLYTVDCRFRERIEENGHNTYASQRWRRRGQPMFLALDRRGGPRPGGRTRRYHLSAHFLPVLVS
# AF4-AF9 inh: MLL-AF4/AF9 protein interaction inhibition | P42568 | 0.47% of 350,000 active | AID 651704 | inhibition, % at 10 µM | AlphaScreen, biotin-AF4 peptide binding to FLAG-AF9;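 active means every replicate reaching a set inhibition limit, whatever the replicate mean, cut at about 25% in these data; inconclusive means mean inhibition reaches that limit but some replicates miss it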;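 further: 0% = plate neutral control median and 100% = total signal loss; the record names both 10 and 1 µM as test concentration; the first replicate is given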
# Target sequence (P42568 whole entry, looked up): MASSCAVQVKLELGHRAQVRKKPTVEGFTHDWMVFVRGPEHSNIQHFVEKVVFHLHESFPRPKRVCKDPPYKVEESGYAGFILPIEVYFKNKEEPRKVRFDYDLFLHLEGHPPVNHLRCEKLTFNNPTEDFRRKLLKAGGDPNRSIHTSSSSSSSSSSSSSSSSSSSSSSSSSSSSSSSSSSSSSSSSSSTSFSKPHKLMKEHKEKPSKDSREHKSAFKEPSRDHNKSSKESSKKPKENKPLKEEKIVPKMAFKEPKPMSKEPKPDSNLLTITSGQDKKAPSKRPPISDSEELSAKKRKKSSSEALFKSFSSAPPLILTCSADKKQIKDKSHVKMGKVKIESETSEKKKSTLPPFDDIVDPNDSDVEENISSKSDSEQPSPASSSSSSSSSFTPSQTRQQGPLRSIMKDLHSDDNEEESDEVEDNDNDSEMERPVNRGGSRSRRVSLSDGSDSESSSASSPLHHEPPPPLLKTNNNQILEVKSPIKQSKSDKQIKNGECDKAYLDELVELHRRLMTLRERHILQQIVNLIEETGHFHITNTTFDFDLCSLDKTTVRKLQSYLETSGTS
# Beta cell apopt: beta cell apoptosis inhibition; AID 435005; INS-1E cytokine-induced death, ATP luminescence, 48 h; percent of positive-control rescue, neutral wells zero; 0.8% of 300,000 active; protection from apoptosis, % (test concentration not listed);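 active means all replicates at 75% or more, or half of them and the mean; inconclusive means half reach 75% but not the mean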;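 further: 0% = cytokine-treated negative control wells and 100% = positive control rescue; higher means more ATP so stronger rescue from cytokine killing; wells of about 40 µL received 100 nL stock; the first replicate is given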
# UCH37 DUB inh: inhibitors of human deubiquitinating enzyme UCH37; Q9Y5K5; purified proteasome/UCH37, Ub-AMC cleavage fluorescence; inhibition, % (test concentration not listed); 0.33% of 330,000 active; AID 588478;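 active means mean of two replicates above 20%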;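 further: 0% = compound-free wells with enzyme and 100% = wells lacking proteasome; stock transfer was 100 nL into about 20 µL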
# Target sequence (Q9Y5K5 whole entry, looked up): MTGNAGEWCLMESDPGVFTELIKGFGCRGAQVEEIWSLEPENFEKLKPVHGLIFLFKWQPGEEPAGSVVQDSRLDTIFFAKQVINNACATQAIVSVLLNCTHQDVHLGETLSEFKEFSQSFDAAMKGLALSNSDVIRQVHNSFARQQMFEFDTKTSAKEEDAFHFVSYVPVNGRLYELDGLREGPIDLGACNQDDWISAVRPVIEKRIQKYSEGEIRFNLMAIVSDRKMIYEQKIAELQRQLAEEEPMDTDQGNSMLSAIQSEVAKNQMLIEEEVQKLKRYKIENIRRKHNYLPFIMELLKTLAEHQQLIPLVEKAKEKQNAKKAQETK
#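 Test system – human UCH37 enzyme supplied as purified proteasome complex · Incubation – 30 min preincubation with enzyme, 25 min cleavage at room temperature · Detection – AMC fluorescence from Ub-AMC cleavage, excitation 355 nm, emission 460 nm · Benchmarks – no-proteasome wells (full inhibition) and compound-free wells (no inhibition)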
# Bfl-1 A1 inh: inhibitors of the anti-apoptotic protein A1, read as caspase activation. MEF A1-2A-BIM cells, Caspase-Glo 3/7 luminescence, 3 h; percent of clofoctol response, vehicle zero. caspase activation, % (concentration not given with the values). 0.066% of 330,000 active;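 active means over half of replicate activation scores above 10%, or exactly half above 10 with the replicate mean above 10; inconclusive means replicate mean below 10 yet half the replicates above 10; inactive means over half of replicates below 10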;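 further: wells of about 30 µL received 50 nL stock; many hits fall short of the cut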
# T cruzi repl: T. cruzi replication inhibition. T. cruzi beta-gal in NIH3T3, luminescence, 90 h. inhibition, % (test concentration not listed). 1.4% of 300,000 active. AID 1885;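 active means mean inhibition across valid replicates above about 55%, limit read from the data; inconclusive means mean below that limit but half or more replicates reach it; inactive means mean below it, under half of replicates reach it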;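 further: signal also drops with host cell toxicity which is not excluded here; 0% = plate median of DMSO wells and 100% = zero luminescence signal; higher percent means less beta-gal luminescence so fewer parasites; stock transfer was 50 nL into about 50 µL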
# Ecoli rRNA inh OD600: further read-out of Ecoli rRNA inh, marked with its call; OD600 change, %; measured here: OD600 growth;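 optical density of the mix in the first replicate; 0 = DMSO median and -100 = no signal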
# Ecoli rRNA inh RFP: second read-out of Ecoli rRNA inh, no call of its own (marks repeat the call); RFP signal change, %; measured here: RFP humanized mutant strains;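 first replicate; 0 = DMSO median and -100 = no signal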
# An asterisk follows results filed as active; i = inactive; ? = inconclusive; . = no result given. A portion of the library. The share of hits here may be higher or lower than overall.
SMILES,E coli growth,Ecoli rRNA inh,Ecoli rRNA inh OD600,Ecoli rRNA inh RFP,FGF22 binding,AF4-AF9 inh,Beta cell apopt,UCH37 DUB inh,Bfl-1 A1 inh,T cruzi repl
CCCCCCn1c(=O)c(C(=O)Nc2ncccc2C)c(O)c2ccccc21,0.67,6,3,3.7,i,2.1,82*,-7.0,2.5,8
N#CC1=C(N)Oc2c(c(=O)oc3ccccc23)C1c1cccnc1 (stereo unspecified),0.7,.,.,.,.,.,-6,2.8,-0.4,8
Cc1cc(C)nc(-n2c(C)nc3cc(Cl)ccc3c2=O)c1,0.71,15,11,2.2,.,.,-7,4.9,0.4,14
CCCNC(=O)N1[C@H]2CC[C@@H]1C(C(=O)OC)=C(c1ccc(C(C)=O)cc1)C2,.,21,20,-4.0,i,-3.2,-6,0.8,0.9,.
CCOc1ccc(N2C(=O)NC(=O)/C(=C/c3cnc(SC)nc3)C2=O)cc1,0.66,5,3,-1.8,i,-1.8,-8,2.5,0.5,4
C=CCn1c(O)c(C=NC2CCN(Cc3ccccc3)CC2)c(=O)[nH]c1=O,0.68,6,-6,-0.7,i,.,0,5.3,-0.3,18
C=CCn1c(O)c(C(CC)=Nc2ccc(N(CC)CC)cc2)c(=O)[nH]c1=O,0.69,.,.,.,.,.,-3,6.1,0.4,4
COC(=O)C1=C(c2ccc(-c3ccccc3)c(F)c2)C[C@@H]2CC[C@H]1N2C(=O)NCCNC(C)=O,.,-3,4,0.3,i,5.0,-1,2.5,-0.6,.
CC(=O)c1cn(Cc2ccc(F)cc2)c2ccccc12,0.66,-6,-3,0.4,i,-6.0,.,0.6,-0.4,-9
O=C(Cc1cc(=O)oc2cc(O)ccc12)NN=Cc1ccc(N(CCCl)CCCl)cc1,0.66,2,8,16,i,0.4,.,-116,.,.
CCN(CC)P(c1n(C)cc[n+]1C)N(CC)CC,0.69,20,24,2.0,i,-3.1,2,3.2,-0.2,-11
C=CCn1c(O)c(C(C)=NCc2ccco2)c(=O)[nH]c1=O,0.69,.,.,.,.,.,1,5.6,-0.6,-1
CCCCn1c(NS(=O)(=O)c2ccccc2)c(C(=O)OCC)c2nc3ccccc3nc21,0.65,.,.,.,.,.,-3,i,0.5,22
COc1ccccc1CC(=O)N1CCN(CCc2ccccc2)CC1,0.67,1,-1,0.5,i,3.8,0,1.1,1.2,1
COc1ccc(C(=O)C2(C)N(O)C(C)C(c3cccs3)=[N+]2[O-])cc1 (stereo unspecified),0.7,.,.,.,.,.,-2,4.7,-0.5,-4
Cc1ccc(NP(=O)(Oc2ccccc2F)Oc2ccccc2F)cc1C,0.69,.,.,.,.,.,-4,-1.6,0.1,23
O=c1[nH]c(=O)n(CCc2ccccc2)c(O)c1C=NCCN1CCNCC1,0.78,.,.,.,.,.,-2,0.2,1.7,15
C[C@]12CCC3C(CC[C@H]4[C@H](O)[C@H](O)CC[C@]34C)C1CC[C@@H]2O (stereo partly specified),0.7,5,9,-1.6,i,-5.1,.,2.2,.,.
O=c1c2ccccc2ncn1-c1ccc([N+](=O)[O-])c(C(F)(F)F)c1,0.68,.,.,.,.,.,0,2.8,-0.1,-6
CN1CCc2nc3sc(C#N)c(N)c3c(-c3cccs3)c2C1,0.64,-14,2,1.9,i,9.8,4,-0.8,1.5,67*
CC(C)(C)C(=O)OC[N+](C)(C)CCOC(=O)C(O)(c1ccccc1)C1CCCC1 (stereo unspecified),0.67,9,0,0.9,i,-0.5,-12,3.2,0.3,4
COc1ccc(CCNCc2ccccc2)cc1,0.68,3,6,-2.4,i,-1.5,-8,-2.3,0.9,34
COC(=O)CCCCC1SCC(NC(=O)c2ccccc2)C1Cl (stereo unspecified),0.68,5,4,1.9,i,2.1,-2,1.6,1.0,-10
Cc1cc(C)c(N=Cc2c(O)[nH]c(=O)[nH]c2=O)c(C)c1,0.71,10,7,4.0,i,-1.6,-1,0.2,0.1,-3
O=C1NC(=O)C(=Cc2ccc(Sc3ccccc3)o2)C(=O)N1,0.67,.,.,.,i,1.8,-9,1.3,0.4,11
COC1=CC=C2[C@H]3Cc4ccc(OC)c5c4[C@@]2(CCN3C)[C@H]1O5,0.67,7,10,-0.9,i,3.3,-18,3.6,1.1,-13
ClCCOCCCl,0.67,1,10,-0.6,i,.,-1,1.5,-0.4,.
COc1ccc(CN2CCCC(C(=O)c3sccc3C)C2)cc1O (stereo unspecified),0.66,6,-6,-7.6,i,-0.8,-12,1.9,2.0,38
O=C1/C(=C/c2cccnc2)N2CCC1CC2,0.66,4,-4,-2.2,i,11,-2,1.7,1.5,-1
CCCc1nc2ccccc2c(=O)n1-c1ccc(OC)cc1,0.72,.,.,.,.,.,-1,0.2,0.1,0

# Rewritten with tabs: entries from further up
mol	E coli growth	Ecoli rRNA inh	Ecoli rRNA inh OD600	Ecoli rRNA inh RFP	FGF22 binding	AF4-AF9 inh	Beta cell apopt	UCH37 DUB inh	Bfl-1 A1 inh	T cruzi repl
COc1ccc(CN2CCCC(C(=O)c3sccc3C)C2)cc1O (stereo unspecified)	0.66	6	-6	-7.6	i	-0.8	-12	1.9	2.0	38
O=C1/C(=C/c2cccnc2)N2CCC1CC2	0.66	4	-4	-2.2	i	11	-2	1.7	1.5	-1

# Next compounds.
SMILES,E coli growth,Ecoli rRNA inh,Ecoli rRNA inh OD600,Ecoli rRNA inh RFP,FGF22 binding,AF4-AF9 inh,Beta cell apopt,UCH37 DUB inh,Bfl-1 A1 inh,T cruzi repl
Nc1ccc(Br)cc1,0.69,6,9,0.9,i,4.9,.,0.4,.,.
C=CCn1c(O)c(C(C)=NCCC2=CCCCC2)c(=O)[nH]c1=O,0.71,.,.,.,.,.,.,-3.5,-0.7,15
C[C@]12CCC3C(CC[C@H]4C[C@H](O)[C@H](O)C[C@]34C)C1CC[C@@H]2O (stereo partly specified),0.66,.,.,.,i,4.7,.,-2.1,.,.
CCOC(=O)C1(c2ccccc2)CCN(CCC(=O)Nc2ccc(F)cc2)CC1,0.71,3,-3,-2.0,i,-5.9,-6,3.7,0.5,.
CCC(=O)OC1(c2ccccc2)C(C)CN(C)CC1C (stereo unspecified),0.7,13,5,-0.8,i,1.3,-1,1.6,0.4,-10
O=C1CCCN1C(=O)c1cncc(Br)c1,0.67,.,.,.,.,.,-10,1.5,-0.4,-15
CCSc1nnc(C(N)Cc2ccccc2)o1 (stereo unspecified),0.72,.,.,.,.,.,-1,-0.3,0.5,-5
Nc1cccc2c1Cc1cc([N+](=O)[O-])ccc1-2,0.69,-16,-8,0.3,i,-3.2,.,1.0,.,.
O=C(NCC1COc2ccccc2O1)c1cccc(S(=O)(=O)N2CCCCC2)c1 (stereo unspecified),0.67,-2,-10,-1.3,i,2.8,3,-1.2,1.1,.
CC(=O)C1C(=O)NC23CCCCC2C1c1ccccc1O3 (stereo unspecified),0.64,.,.,.,.,.,-1,1.8,-0.1,8
CCOC(=O)C(O)(c1ccc(NC(=O)NC)cc1)C(F)(F)F (stereo unspecified),0.66,8,-1,1.3,i,-9.5,-3,4.6,0.3,-6
O=C(/C=C/c1ccccc1)NCCc1cnc[nH]1,0.76,.,.,.,i,-0.2,-2,5.5,0.8,?
COc1ccccc1OCC(=O)N1CCN(Cc2ccc3c(c2)OCO3)CC1,0.69,1,-8,3.3,i,-3.3,4,5.8,0.6,4
COc1ccc(C2SCC(=O)Nc3c2c(C)nn3-c2ccccc2)cc1OC (stereo unspecified),0.7,.,.,.,.,.,2,2.0,-0.9,3
Nc1c2c(nc3sc4c(c13)CCCCC4)CCCC2,0.62,-23*,-12*,-0.8*,i,-2.5,3,6.5,-3.7,11
CC(c1ccccc1)[n+]1ccccc1 (stereo unspecified),0.66,-2,8,-11,i,-3.1,3,2.0,0.4,-21
Cc1ccc(-n2c(O)c(/C=N/NC(=O)c3ccncc3)c(=O)[nH]c2=O)cc1,0.7,20,9,0.3,i,6.8,-1,-5.7,-0.3,-2
CN1C(=O)/C(=C/C=C/c2ccco2)C(=O)NC1=S,0.73,16,11,3.2,i,-1.9,-8,8.2,0.1,2
Cc1cc(Cl)ccc1OC(C)C(=O)O (stereo unspecified),0.68,.,.,.,i,-2.8,.,1.3,-1.1,-16
CN1C(=O)N(C)C(=O)C2(Sc3ccccc3C2=O)C1=O,0.69,.,.,.,.,.,-11,5.3,-0.4,.
O=C1NC(=S)N(C2CC2)C(=O)/C1=C/c1ccc2c(c1)CCN2CCCCl,0.7,.,.,.,.,.,-9,6.0,0.9,0
O=C1NC(=O)C(Nc2ccccc2)C(=O)N1,0.63,4,10,-3.0,i,-3.0,.,64*,.,.
Clc1ccc2c(N3CCNCC3)ccnc2c1,0.69,.,.,.,.,.,-23,4.7,0.3,-16
COc1ccc(CCC(=O)NCCc2cnc[nH]2)cc1,0.67,13,8,-3.6,i,1.2,-10,0.4,0.7,18
CCC1C(C#N)=C(N)Oc2c1c(=O)oc1ccccc21 (stereo unspecified),0.62,3,-6,-1.2,i,0.2,-1,-0.8,-0.2,-7
Cc1ccnc(-n2c(C)cc(/C=C3\C(=O)NC(=S)N(C)C3=O)c2C)c1,.,11,4,6.9,i,-3.0,0,.,0.4,-12
CC(Cc1ccccc1)[n+]1cc(/N=C(\[O-])N(C)C)on1 (stereo unspecified),0.69,9,6,-2.6,.,.,-2,7.9,0.6,1
CCn1c(=O)cc(OCC(=O)N2CCC3(CC2)OCCO3)c2ccccc21,0.67,.,.,.,.,.,2,0.6,1.1,-1
COC(=O)C1=C(c2c(C)noc2C)C[C@@H]2CC[C@H]1N2C(=O)NC1CC1,.,6,6,-0.3,i,.,-5,1.2,0.5,.
CN1C(=O)C(=Cc2ccc(Sc3ccccc3)o2)C(=O)N(C)C1=O,0.66,-1,8,-1.1,i,-5.4,-7,2.9,0.5,4
Cc1cc(C=C2C(=O)N(C)C(=S)N(C)C2=O)c(C)n1C1CCCCC1,0.73,.,.,.,.,.,1,-2.6,0.4,-6
O=C(Nc1ccccc1)Oc1ccccc1,0.63,14,3,1.6,i,-12,-2,0.4,-2.7,-12
CCC1CN1P(=O)(c1ccccc1)N1CC1CC (stereo unspecified),0.68,14,17,2.8,i,-0.4,.,0.0,.,.
COc1ccccc1-n1c(O)c(/C=C2\C=Nc3ccccc32)c(=O)[nH]c1=O,.,-1,0,4.6,i,0.8,-7,.,-0.5,2
CCCCn1c(=O)c(C(=O)Nc2ccccn2)c(O)c2ccccc21,0.69,18,16,-1.0,i,1.5,29,1.8,0.0,31
CCCCCCn1c(=O)c(C(=O)Nc2c(C)n(C)n(-c3ccccc3)c2=O)c(O)c2ccccc21,0.72,12,9,-1.0,i,-10,3,5.2,-0.2,-1
NNCc1cccc(O)c1,0.66,7,2,0.2,i,4.2,-6,0.4,-5.5,6
CN(C)CC1CCCCC1OC(=O)c1ccc(Cl)c(Cl)c1 (stereo unspecified),0.68,-11,-12,-1.7,i,4.4,-2,3.3,-1.5,-4
CCOC(=O)C1(CCCc2ccccc2)CCN(C2CCC2)CC1,0.68,1,-1,-1.4,i,0.8,.,2.5,2.1,11
CCOC(=O)[C@]12Cc3ccccc3[C@H]1N(Cc1ccccc1)C(=O)c1ccccc12,.,-3,-10,-0.3,i,4.9,.,3.9,.,.
